From PubChem BioAssay
PABP FP inh: blocks human PABP binding to poly(A) RNA; P11940; inhibition, % at 35 µM; 290,000 compounds, 1% hits; fluorescence polarization;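 active = 50% or more with normal probe brightness, or confirmed in later tests; inconclusive = above 50% with abnormal brightness, or retests that disagree; inactive = below 50% or failed in later tests; about a fifth of its hits are not listed in these tables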;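 note: calls also rest on retests at 20 µM and on dose response follow-up; controls were probe without protein and protein plus probe with vehicle; some compounds called inactive have numbers as strong as hits; many hits fall short of the cut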
Rce1 inh: inhibitors of yeast Ras-converting enzyme. yeast membranes, quenched prenylated peptide cleavage fluorescence. calls only. 290,000 compounds, 0.27% hits;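 active = fall in fluorescence gain of 50% or more versus controls, with final raw signal at or below 3038400; inconclusive = same 50% fall but final raw signal above 3038400; inactive = fall in fluorescence gain under 50%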;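 note: plate controls were neutral control wells for no effect and wells lacking membranes for full effect; tested at 10 µM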
Target sequence (Q03530 whole entry, looked up): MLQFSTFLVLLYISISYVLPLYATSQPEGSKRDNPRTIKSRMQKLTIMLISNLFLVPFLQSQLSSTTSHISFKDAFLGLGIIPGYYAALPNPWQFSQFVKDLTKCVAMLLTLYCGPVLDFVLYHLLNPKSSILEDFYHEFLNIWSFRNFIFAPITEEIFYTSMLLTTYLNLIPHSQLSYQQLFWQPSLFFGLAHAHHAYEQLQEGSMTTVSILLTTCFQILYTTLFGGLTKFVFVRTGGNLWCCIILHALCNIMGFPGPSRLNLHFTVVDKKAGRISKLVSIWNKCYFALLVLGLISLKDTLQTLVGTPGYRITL
MT1-MMP act inh: MT1-MMP (human) activation inhibition | P50281 | HT1080 RFP-PRO-GFP cells, GFP/RFP ratio fluorescence, overnight; percent of plate control window, DMSO zero | GFP/RFP ratio change, % at 20 µM | 360,000 compounds, 0.061% hits;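 active = GFP/RFP ratio change of at least 30% with cell ATP level not reduced by more than half and red fluorescence within 50% of control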; note: strong numbers were not always called active
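Assay system: HT1080 cells carrying an RFP-PRO-GFP reporter | Dosing: Single dose of 20 µM compound, 1% DMSO final | Incubation: Cells overnight before dosing, compound overnight, 37 °C, 5% CO2 | Evaluation: GFP/RFP fluorescence ratio | Control set: DMSO and RFP-L50D-GFP cell wells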
eIF4H inh: inhibitors of RNA binding by human eIF4H; inhibition, % at 35 µM; 290,000 compounds, 0.94% hits; Q15056; eIF4H fluorescence polarization binding assay;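 active = 50% or more with normal probe brightness, or confirmed in later tests; inconclusive = above 50% with abnormal brightness, or retests that disagree; inactive = below 50% or failed in later tests; about a fifth of its hits are not listed in these tables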;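 note: calls also rest on retests at 20 µM and on dose response follow-up; 0% = protein and probe with vehicle and 100% = probe without protein; strong numbers were not always called active; many hits fall short of the cut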
Env fusion inh: inhibitors of HIV Env-mediated cell fusion | HeLa-JRFL Env/CEM21 cell fusion, luciferase | inhibition, % at 12.3 µM | 360,000 compounds, 1.1% hits | AID 651610;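 active = mean replicate inhibition score of at least 50 and every replicate individually at or above 50; inconclusive = only one of the two criteria met; inactive = mean below 50 and not all replicates reaching 50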;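 note: 0% = plate neutral controls and 100% = maraviroc near 300 nM; one replicate is shown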
Yeast UUG start: alters start codon recognition fidelity in yeast. S. cerevisiae UUG-firefly luciferase reporter, luminescence/redox ratio. activity score, % at 18.7 µM. 350,000 compounds, 0.13% hits. AID 602363;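 active = replicate mean at a twofold rise or more, about +100% in these data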;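 note: firefly luciferase made from a UUG start codon reports start codon fidelity; reporter light over untreated wells divided by growth signal over untreated wells; some hits fall short of that in this replicate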
CSC inhib: cancer stem cell inhibition; inhibition, % at 7.5 µM; cancer stem cell-like cells viability, luminescence; AID 2717; 300,000 compounds, 1.1% hits;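 active = mean at 75% or more and at least half the replicates too; inconclusive = mean and replicates disagree; tested in HMLE shEcad cells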;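 note: 0% = median of negative and 100% = median of positive control wells; the first replicate is given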
MT1-MMP act inh RFP: also measured in MT1-MMP act inh; calls as there; RFP signal change, %; measured here: RFP expression control read;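 0 = vehicle wells; hits needed this value within 50% of zero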
* hit, by the source's call; i = inactive; ? = inconclusive; nt = no result given. An excerpt, so the mix of outcomes need not match the whole.

SMILES	PABP FP inh	Rce1 inh	MT1-MMP act inh	MT1-MMP act inh RFP	eIF4H inh	Env fusion inh	Yeast UUG start	CSC inhib
C=CCNC(=O)CN(c1cc(Cl)ccc1OC)S(=O)(=O)c1ccc(C)c([N+](=O)[O-])c1	-6	i	-3	-2	-2	0	nt	0
CCOC(=O)C1CCN(C(=O)c2ccc3nc(-c4ccc(OC)cc4)c(-c4ccc(OC)cc4)nc3c2)CC1	nt	i	-5	-7	nt	-2	6	0
Cc1ccc(NC(=O)N2CCSc3ccccc32)cc1	4	i	1	6	5	7	-10	nt
COc1ccc(CNC(=O)CSCc2c(F)cccc2Cl)cc1	-5	i	1	2	1	12	-23	-6
CN=C1N(C)C[C@@H]2[C@@H]3C(=O)N(C)C(=O)[C@@H]3[C@](C)(C(=O)OC)N12	nt	nt	4	7	nt	9	4	nt
Cc1ccc(S(=O)(=O)N2C(=O)CCC2C(=O)O/N=C(\N)c2cccc([N+](=O)[O-])c2)cc1 (stereo not drawn)	0	i	-4	2	-22	-1	-5	5
O=C(O)C(CCc1ccccc1)N1C(=O)c2ccccc2C1=O (stereo not drawn)	nt	nt	9	0	nt	-1	-18	nt
COCCNC(=O)/C(C#N)=C/c1cccc(/C=C(\C#N)C(=O)NCCOC)c1	-11	i	-17	-12	3	nt	nt	10
CC(=O)c1ccc(NC(=O)C[n+]2ccc(N(C)C)cc2)cc1	-14	i	1	-3	6	-3	-9	-6
O=C1CCCC/C1=C\Nc1ccc(Cl)cn1	11	i	-2	0	6	-72	-9	-13
Cc1ccc(S(=O)(=O)/C=C2\NC(=O)CS2)cc1	-7	i	1	9	5	nt	11	-11
O=C(O)/C=C/c1ccc(S(=O)(=O)Nc2cccnc2)cc1	-1	i	-2	0	-11	-7	5	-19
COc1cc(/C=N/NC(=O)CCN2CCN(C)CC2)cc2c1OCO2	0	i	1	2	1	4	8	-18
COc1ccccc1/C=N/n1c(N)c(C(=O)NC2CCCCC2)c2nc3ccccc3nc21	0	nt	5	3	0	-33	-15	nt
N#Cc1cc([N+](=O)[O-])ccc1N1CCN(c2ccccc2O)CC1	-2	i	2	-4	1	-99	-3	8
O=C(Cn1cnc2c(nnn2Cc2ccc(F)cc2)c1=O)NCc1ccc2c(c1)OCO2	-3	i	4	0	-6	nt	-17	-12
Cc1[nH]nc(-c2ccc(O)cc2O)c1-c1nc2ccccc2s1	-8	i	1	1	-3	-7	nt	5
c1cncc(-c2nc(N3CCOCC3)c3c4c(sc3n2)CCC4)c1	-5	i	-8	-3	-7	-13	-19	7
CCc1nn(CCCC(=O)Nc2ccc(C)cc2C)c(=O)c2cc3occc3n12	15	i	-1	-4	0	4	6	-9
Cc1cc(S(=O)(=O)N2CCOCC2)ccc1OCC(=O)Nc1cccc(F)c1	4	i	2	4	-10	10	10	6

Three compounds from above, ordered by molar mass, largest number first:
SMILES	PABP FP inh	Rce1 inh	MT1-MMP act inh	MT1-MMP act inh RFP	eIF4H inh	Env fusion inh	Yeast UUG start	CSC inhib
c1cncc(-c2nc(N3CCOCC3)c3c4c(sc3n2)CCC4)c1	-5	i	-8	-3	-7	-13	-19	7
Cc1[nH]nc(-c2ccc(O)cc2O)c1-c1nc2ccccc2s1	-8	i	1	1	-3	-7	nt	5
CC(=O)c1ccc(NC(=O)C[n+]2ccc(N(C)C)cc2)cc1	-14	i	1	-3	6	-3	-9	-6

(list continues)
SMILES	PABP FP inh	Rce1 inh	MT1-MMP act inh	MT1-MMP act inh RFP	eIF4H inh	Env fusion inh	Yeast UUG start	CSC inhib
CCOC(=O)C1(CCOc2ccccc2)CCN(CC=C(C)C)CC1	5	i	0	2	0	3	4	44
O=C(COC(=O)Cn1cnc2ccccc21)Nc1ccccc1C(F)(F)F	nt	nt	-4	0	nt	nt	-24	-14
CCCn1c(SCC(=O)OCc2ccccc2)nc2c1c(=O)n(C)c(=O)n2C	-7	i	-1	8	-10	-40	-9	-16
N#Cc1ccc[n+](CC(=O)c2ccc(NC(=O)c3ccccc3)cc2)c1	?	i	-1	7	?	-6	-10	-19
CCc1cccc(NS(=O)(=O)c2c(C)nc3sc(CC)nn3c2=O)c1	0	nt	1	-9	-7	7	3	6
CCOC(=O)C1CCN(c2nc(N)c3c(N)nc(SCC(=O)O)cc3c2C#N)CC1	?	i	-12	8	?	-40	-16	nt
O=C(Cn1nnc2c(cnn2-c2ccc(F)cc2)c1=O)c1ccccc1F	-3	nt	6	5	7	-34	-9	31
CC(C)Oc1ccc(C(=O)Nc2ccc(NC(=O)c3ccco3)c(Cl)c2)cc1	0	i	4	-17	-1	nt	-6	18
COc1cc(OC)c(C2SCCS2)c(OC)c1	5	i	2	6	-1	-6	-23	-10
Nc1c2c(nc3ccc(Br)cc13)N(C1CCCCC1)CC2	5	i	nt	nt	0	nt	nt	?
Clc1ccc(N2CCN(c3cnc4ccccc4n3)CC2)cc1	3	i	1	-8	2	nt	-30	7
CCCOC(=S)Nc1ccccc1	-7	i	0	3	-2	nt	-1	-2
CCOC(=O)c1cnc2c(OC)cccc2c1NCc1cccnc1	-6	nt	nt	nt	3	9	nt	6
Cc1ccc(C2(C)NC(=O)N(CC(=O)N(C)CC(=O)Nc3cccc(F)c3)C2=O)cc1 (stereo not drawn)	nt	nt	1	1	nt	31	-10	-9
COc1ccc(S(=O)(=O)N2CCOCC2)cc1NC(=O)c1cccs1	nt	nt	-3	1	nt	0	-7	nt
CC(=O)C1=C(C)NC2=C(C(=O)CC(C)(C)C2)C1C (stereo not drawn)	5	i	-10	-6	8	40	nt	-2
CC(C)C[C@H](NC(=O)N1CC(=O)Nc2ccccc21)C(=O)N[C@@H](Cc1ccccc1)C(=O)O	2	nt	-2	0	-7	nt	-8	-10
Cn1cc(CNCC2CCCO2)c(-c2ccc(Oc3ccccc3)cc2)n1 (stereo not drawn)	4	i	-1	-3	5	0	nt	-11
Cc1ccc(Nc2nc3ccc(Cl)cc3n3cnnc23)cc1F	-6	i	10	3	-11	17	-9	-7
Cc1cccc(N2C(=O)c3cccnc3C2=O)c1	-5	i	7	5	-3	-19	-12	-8
O=[N+]([O-])c1ccc(/C=N/n2c(COc3ccccc3)n[nH]c2=S)cc1	-3	i	3	1	-3	8	-21	1
COc1ccc(CN=C2NN=C(c3cccc(OC)c3)CS2)cc1	15	i	-1	-3	-3	-56	nt	4
COc1ccc(CNC(=O)Cn2cc(C)c(=O)[nH]c2=O)cc1	nt	nt	-1	2	nt	20	9	nt
Cc1ccc(C(=O)O)cc1N1C(=O)c2cccc3c([N+](=O)[O-])ccc(c23)C1=O	77*	i	-81	-1	101*	7	-10	-1
COc1ccc(C(C)=O)cc1CN1C(=O)NC2(CCCCCC2)C1=O	-4	i	8	4	-8	-26	-13	-2
Cc1cc(N2CCN(S(=O)(=O)c3ccc(Cl)c(Cl)c3)CC2)c2ccccc2n1	-15	i	1	-10	-8	-9	-5	nt
CC(C)OCCCNC(=O)C1CCC(CNS(=O)(=O)c2cccc3nsnc23)CC1 (stereo not drawn)	-3	i	3	3	-1	nt	-14	-2
CC1=CSC2=NS(=O)(=O)CCN12	-2	i	1	0	4	17	-9	-7
CCOc1ccc(/C=N/NC(=O)Cc2ccccc2)cc1CN1CC2CC(C1)c1cccc(=O)n1C2 (stereo not drawn)	nt	nt	-2	-2	nt	nt	-3	2
O=C(CCC(=O)NNC(=O)c1ccc(Cl)cc1Cl)NCc1ccccc1	nt	nt	-3	1	nt	nt	-20	3
Cc1[nH]ccc(=O)c1Cc1c(Cl)cccc1Cl	-6	i	0	4	-8	-1	-6	-3
CCOC(=O)c1cc(C(=O)Nc2ccc(S(=O)(=O)Nc3ccc(OC)cc3)cc2)nn1C	0	nt	4	-12	-11	nt	-7	-2
CC(C)C(=O)NNC(=O)c1csc(CS(=O)(=O)c2ccc(Cl)cc2)n1	-5	i	1	5	1	6	nt	8
Cc1cc(Br)ccc1NC(=O)CN(C)Cc1cccs1	-2	i	0	-3	8	-2	9	nt
CCCn1cnc2c(SCCc3ccccc3)nc(N)nc21	nt	nt	4	-1	nt	1	-18	nt
Cc1ccc(C)c(S(=O)(=O)N2CCN(C(=O)CCc3c[nH]c4ccccc34)CC2)c1	nt	nt	-4	0	nt	nt	11	25
Cc1nc(SCc2ccc([N+](=O)[O-])cc2)nc2ccccc12	10	i	6	2	-1	27	-18	-2
Cc1cc(OCCn2ccnc2)cc(C(C)C)c1	-4	i	6	7	2	4	-6	-15
CCCOc1ccc(-c2nc(N3CCN(C)CC3)c3ccccc3n2)cc1	-11	i	-2	1	-6	-52	-21	19
COc1cc(C2NC(=O)NC(C)=C2C(C)=O)ccc1O (stereo not drawn)	0	i	-1	0	-2	0	-7	-10
O=C(NCc1ccc(F)cc1)C1CCCN1C(=O)Nc1ccccc1 (stereo not drawn)	5	i	-2	-1	-8	4	-15	11
CC(NC(=O)C1CCN(c2nnc(N3CCCC3=O)s2)CC1)c1ccccc1 (stereo not drawn)	0	i	-3	4	4	5	-8	-1
COc1ccc(C(=O)NC2CCN(C(=S)NCCc3ccccc3)CC2)cc1	-5	i	-4	-12	-2	25	nt	nt
COc1ccc(Cl)cc1NC(=O)CN1CCCCCC1	-4	i	1	-3	2	3	nt	10
Cc1ccccc1C(=O)Nc1ccc2c(c1)C(=O)NC2=O	-9	i	0	0	1	-43	-22	-2
Cc1ccc(-c2nnc(SCC(=O)N3CC(C)CC(C)C3)o2)cc1C (stereo not drawn)	0	i	6	2	0	15	-3	22
Cc1ccnc(NC(=O)c2ccc(S(=O)(=O)N3CCCCC3)cc2)c1	nt	nt	0	-3	nt	1	-2	nt
CCCCCCSc1cc(-c2nc3cnccn3c2NCCCC)ccc1OC	nt	nt	-17	-5	nt	nt	-3	105*
Cc1nn(C2CCS(=O)(=O)C2)c(Cl)c1/C=C/C(=O)OCC(=O)c1cc(C)n(-c2ccc(F)cc2)c1C (stereo not drawn)	3	i	-3	-19	1	55*	nt	16
CC(=O)Nc1cc(-c2ccccc2N(C)C)cn2c(-c3ccc(F)c(Cl)c3)cnc12	nt	nt	15	-7	nt	-3	-4	nt
O=C(NCc1ccco1)c1cccc2c(-c3ccc(F)c(F)c3)coc12	nt	nt	1	-5	nt	14	-8	nt
COC(=O)CCC(=O)OC1(C)C(=O)C=C2C=C(C3CC3)N(Cc3ccc(OC)cc3)C=C2C1=O (stereo not drawn)	32	i	0	6	23	3	-13	-23
O=C(NCc1ccc(F)cc1)c1cc2sccc2n1Cc1ccc(F)cc1	-3	i	nt	nt	0	5	nt	32
COC(=O)COc1cccc2c(=O)n(CC(=O)N3CCC(C)CC3)ccc12	17	i	-4	-2	-7	3	-12	11
CCNc1nc(C(=O)O)nc(N2CCOCC2)n1	-11	i	0	3	4	1	nt	-1
Cc1ccc2cc(NC(=O)CC(CC(=O)O)c3ccccc3)ccc2n1 (stereo not drawn)	1	i	-3	0	4	-6	-8	nt
COc1ccc(N2CCN(C(=O)CCC(=O)N3CC(C)Oc4ccccc43)CC2)cc1 (stereo not drawn)	-3	i	1	-6	-7	17	-5	-9
CC(=O)Nc1ccc(OCC(O)CN2C(C)CCCC2C)cc1 (stereo not drawn)	10	i	2	4	6	0	nt	14
COc1ccccc1C1CCN(Cc2ccc(C)cc2)CC1	2	i	0	2	2	-13	-2	21
Cc1cc(-c2nnc(SCC(=O)Nc3ccc(F)cc3F)n2N)n[nH]1	-2	i	1	4	-10	-10	-8	-14
COc1ccc(C2/C(=C(/O)c3ccc(Br)cc3)C(=O)C(=O)N2C)cc1 (stereo not drawn)	10	i	-8	4	4	-4	-15	-11
CNS(=O)(=O)c1cccc(C(=O)OCC(=O)Nc2ccc(Cl)cc2F)c1	7	i	2	0	0	-5	-15	12
CCOc1ccccc1CN1CCCC(CNS(=O)(=O)c2ccc(OC)cc2)C1 (stereo not drawn)	-5	i	2	4	-6	-11	-7	32
